High-throughput results: PubChem, National Center for Advancing Translational Sciences (NCATS)
CtBP-E1A blk = qHTS Assay for Inhibitors of the CtBP/E1A Interaction; CtBP / adenovirus E1A interaction (AlphaScreen); AlphaScreen GST-E1A/His-CtBP binding, 1536-well; active compounds read low; control for the full effect not named in the record; activity change, % (test concentration not listed); hit rate 0.49% among 340,000; AID 651724, 2012; in the data active means activity change below about -65%; inconclusive means about -30% to -65%; inactive means above about -30%; note: % is set by controls: 0 for no effect and ±100 for the full control effect
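AlphaScreen with 125 nM GST-E1A and 125 nM His-CtBP (5X stocks) in Tris pH 8.0, 300 mM NaCl, BSA, Tween 20, TCEP. Compounds preincubated 2 h at 37 deg C, then glutathione donor/nickel acceptor beads added for 1 h at 37 deg C in dark.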
ClpP mod = qHTS Assay for Activators of ClpP; ATP-dependent Clp protease proteolytic subunit (Bacillus subtilis (strain 168)), P80244; purified B. subtilis ClpP, FRET peptide cleavage, 20 min; Potency, µM (highest dose often 57.5 µM), without a hit: at the top dose activity change, negative = active; hit rate 1.9% among 340,000; active = well fitted falling curve with a large enough effect; inconclusive = small, poorly fitted or top-dose-only effect; inactive = no such curve, though single readings can be large or run the other way; note: potency is the fitted concentration of half-maximal effect; the source files actives as falling curves though it sought activators and does not explain the sign; nearly all actives have a fitted effect of over 65% in size; many hits overshoot -100%
Target sequence (P80244 whole entry, looked up): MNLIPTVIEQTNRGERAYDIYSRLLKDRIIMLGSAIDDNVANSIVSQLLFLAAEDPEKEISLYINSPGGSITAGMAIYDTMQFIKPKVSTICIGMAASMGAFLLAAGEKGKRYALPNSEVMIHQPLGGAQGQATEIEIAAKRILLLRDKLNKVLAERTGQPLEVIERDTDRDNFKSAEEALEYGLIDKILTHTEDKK
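FRET quenching reversal measured ClpP activation: 10 microg/mL B. subtilis ClpP at pH 8 with the FRET-FV decapeptide, read at 430 nm after 320 nm excitation. The 20-min minus 0-min signal was scaled between DMSO/no-enzyme wells and ADEP (5.8 microM final).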
Menin-MLL FL inh = qHTS Assay for Inhibitors Targeting the Menin-MLL Interaction in MLL Related Leukemias: Competition With Fluorescein Labeled MLL-derived Peptide; Fluorescence polarization, fluorescein-MLL peptide displacement from menin; FP activity change, % at 61.4 µM; 290,000 tested, under 10 active; inconclusive = falling polarisation curve, or a change in total fluorescence; inactive = total fluorescence flat and polarisation flat or rising; no compound was filed as active; the % refers to the polarisation; negative = inhibition;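 note: % of control where 0% means no effect; inhibitors lower the polarisation; unlabelled MLL peptide was the positive control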
Sfp PPTase inh = qHTS Assay for Inhibitors of Bacillus subtilis Sfp phosphopantetheinyl transferase (PPTase); 4'-phosphopantetheinyl transferase ffp (Bacillus subtilis), Q9F4F7; Biochemical Sfp PPTase activity, qHTS; Potency, µM, without a hit: max response, negative = inhibition, actives largely listed as inhibitors; hit rate 3.5% among 310,000; AID 1490, 2009; active = well fitted inhibition curve with a large enough effect; inconclusive = small, poorly fitted or top-dose-only effect, or another doubt; inactive = no such curve, though single readings can be large or run the other way;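 note: the enzyme is Sfp with the accession as filed and its product quenches rhodamine fluorescence; potency is the fitted concentration of half-maximal effect; 0% = enzyme reaction without inhibitor and -100% = no enzyme wells; top concentration of the series not given in the record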
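Compounds were incubated with enzyme (final 15 nM) for 15 min at room temperature before substrate addition started the reaction. Fluorescence at 525 nm excitation, 598 nm emission was recorded immediately and after 30 minutes.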
TRPV1 potentiator = HTS Assay for Compounds that Act as Potentiators of the Vanilloid Receptor 1; Transient receptor potential cation channel subfamily V member 1 (Homo sapiens), Q8NER1; TRPV1-expressing cells, Fluo-8 calcium influx, capsaicin EC20 potentiation; host cell line not named in the record; control for the full effect not named in the record; potentiation, % at 8.33 µM; hit rate 0.02% among 320,000; active means potentiation above 80%; inconclusive means 30% to 80%; inactive means below 30%; note: 0% is about no effect
Target sequence (Q8NER1 whole entry, looked up): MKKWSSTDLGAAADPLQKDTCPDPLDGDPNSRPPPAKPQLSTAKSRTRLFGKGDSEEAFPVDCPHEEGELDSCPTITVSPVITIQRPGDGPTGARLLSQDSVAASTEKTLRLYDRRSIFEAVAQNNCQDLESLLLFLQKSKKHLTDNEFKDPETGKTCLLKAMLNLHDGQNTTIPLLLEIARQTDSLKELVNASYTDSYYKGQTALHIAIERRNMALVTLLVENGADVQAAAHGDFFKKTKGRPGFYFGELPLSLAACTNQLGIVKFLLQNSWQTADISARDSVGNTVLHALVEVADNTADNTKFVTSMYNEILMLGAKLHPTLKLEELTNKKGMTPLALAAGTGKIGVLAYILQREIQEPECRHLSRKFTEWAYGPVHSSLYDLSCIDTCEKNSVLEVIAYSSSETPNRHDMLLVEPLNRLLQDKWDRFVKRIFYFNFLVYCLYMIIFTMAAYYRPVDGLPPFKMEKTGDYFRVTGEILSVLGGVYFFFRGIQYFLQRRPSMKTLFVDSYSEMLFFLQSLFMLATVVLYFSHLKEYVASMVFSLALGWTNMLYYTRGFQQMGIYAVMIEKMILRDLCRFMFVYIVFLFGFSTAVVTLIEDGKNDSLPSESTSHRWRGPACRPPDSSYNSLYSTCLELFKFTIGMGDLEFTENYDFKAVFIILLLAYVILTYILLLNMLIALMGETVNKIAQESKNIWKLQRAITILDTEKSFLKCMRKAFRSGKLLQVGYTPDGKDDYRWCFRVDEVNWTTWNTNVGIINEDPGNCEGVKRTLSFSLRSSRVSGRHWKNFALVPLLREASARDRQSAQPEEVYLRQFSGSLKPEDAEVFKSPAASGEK
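Cells expressing TRPV1 were dye-loaded with Fluo-8 and read kinetically: 10 s baseline, 3 min after compound (agonist portion), then 2 min after EC20 capsaicin (allosteric enhancer portion). Calcium-bound dye fluorescence at 480/520 nm.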
gsp agonist = qHTS for Agonist of gsp, the Etiologic Mutation Responsible for Fibrous Dysplasia/McCune-Albright Syndrome: qHTS; hit rate 0.13% among 340,000; Potency, µM (doses to about 76.9 µM), without a hit: at the top dose activation (cAMP increase), usual class: activators; gsp mutant cells, cAMP HTRF, 30 min; control for the full effect not named in the record; AID 624287, 2012; active = well fitted activation curve with a large enough effect; inconclusive = small, poorly fitted or top-dose-only effect, or another doubt; inactive = no such curve, though single readings can be large or run the other way; cell line not stated here;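 note: phosphodiesterase inhibitor Ro 20-1724 added with compounds to block cAMP breakdown; potency is the fitted concentration of half-maximal effect; nearly all actives have a fitted effect of over 60% in size; about a fifth of the inactives were tested at one dose only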
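Cells stably selected in G418 were plated at 2000/well, grown 16-24 hr, then given compounds in DMSO with the PDE inhibitor […] (300 uM solution added) for 30 min at 37C; cAMP was read by HTRF.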
gsp antag = qHTS for Antagonists of gsp, the Etiologic Mutation Responsible for Fibrous Dysplasia/McCune-Albright Syndrome: qHTS; gsp-mutant cells, cAMP HTRF, 30 min; control for the full effect not named in the record; Potency, µM (series often up to 76.9 µM), for inactives: at the highest dose activity change, negative = inhibition, most hits filed as inhibitors; hit rate 0.4% among 340,000; AID 624288, 2012; active = falling curve of any shape with a large fitted effect; inconclusive = falling curve, mostly with a smaller effect; inactive = flat or rising curve; cell line not stated here;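 note: intracellular cAMP measured with PDE inhibitor Ro 20-1724 present during compound exposure; potency is the fitted concentration of half-maximal effect; % is set by controls: 0 for no effect and ±100 for the full control effect; nearly all actives have a fitted effect of over 65% in size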
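HTRF cAMP read-out (cAMP-d2 plus anti-cAMP antibody-K in lysis buffer, 30 min RT). Before lysis, cells are exposed to compounds with […] for 30 min at 37C in DPBS containing Ca/Mg, BSA and Tween 20.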
* = called active by the depositor; & = joins results of further samples; [ ] = remark or other dose.

CC(C)(C)c1ccc(C(=O)N/C(=C\c2cccs2)C(=O)N2CCOCC2)cc1 was read as CtBP-E1A blk 23, Menin-MLL FL inh -2.7, Sfp PPTase inh 3%, TRPV1 potentiator 12, gsp agonist 1%[15.4 µM] and gsp antag -40%.
For CCC(CC)C(=O)NCc1ccc(OC)cc1 the results were CtBP-E1A blk -16, ClpP mod -2.4%, Menin-MLL FL inh -2.9, Sfp PPTase inh 18%, TRPV1 potentiator 0, gsp agonist 18% and gsp antag 8%.
For C=CCC1(NCc2ccco2)CCN(CC)CC1 the results were CtBP-E1A blk -14, ClpP mod -4.1%, Menin-MLL FL inh 3.8, Sfp PPTase inh -28%, TRPV1 potentiator -5, gsp agonist 36% and gsp antag 7%.
Screening COc1cc(-c2cc(C(=O)Nc3ccc(S(=O)(=O)NCc4ccco4)cc3)c3ccccc3n2)cc(OC)c1OC returned CtBP-E1A blk -1, ClpP mod -28%, Menin-MLL FL inh 3.9, Sfp PPTase inh 4%, TRPV1 potentiator -7, gsp agonist inconclusive and gsp antag -2%.
Screening COCCCn1c(SCC(=O)OC2CCCCC2)nnc1-c1ccco1 returned CtBP-E1A blk 7, ClpP mod -2.1%, Menin-MLL FL inh 2.4, Sfp PPTase inh inconclusive, TRPV1 potentiator 10, gsp agonist -10% and gsp antag -4%.
Screening COc1cc(NS(=O)(=O)c2ccc(NC(=S)NC(=O)C3CCCC3)cc2)nc(OC)n1 returned CtBP-E1A blk -10, ClpP mod -0.9%, Menin-MLL FL inh -0.6, Sfp PPTase inh -26%, TRPV1 potentiator -7, gsp agonist 12% and gsp antag -19%.
`COCCN(C(=O)CSc1nnc(-c2cccc(F)c2)n1N)c1c(N)n(Cc2ccccc2)c(=O)[nH]c1=O` gave CtBP-E1A blk 6, ClpP mod 0.4%, TRPV1 potentiator 8, gsp agonist -19% and gsp antag 6%.
For OCCNCCCCSc1ccc(Cl)cc1 the results were ClpP mod 0.2%, Menin-MLL FL inh 0.6, Sfp PPTase inh -22%, TRPV1 potentiator 1, gsp agonist 7% and gsp antag 0%.
`CCC(=O)Nc1ccc(C(=O)n2ccc(C)n2)cc1` gave CtBP-E1A blk 3, ClpP mod -0.3%, Menin-MLL FL inh 0.0, Sfp PPTase inh 6%, TRPV1 potentiator 3, gsp agonist 6%[15.4 µM] and gsp antag -4%.
`O=C1CSC(c2ccccc2O)N1Cc1ccccc1` (configuration not stated) gave CtBP-E1A blk 5, ClpP mod 0.6%, Menin-MLL FL inh -8.0, Sfp PPTase inh 0%, TRPV1 potentiator -10, gsp agonist 12% and gsp antag 14%.
For Cc1sc(N2CCN(S(=O)(=O)c3ccc4c(c3)NC(=O)CO4)CC2)nc1-c1ccccc1 the results were CtBP-E1A blk -5, ClpP mod -1.3%, Sfp PPTase inh 4%, TRPV1 potentiator 6, gsp agonist -41%[inhibitor] and gsp antag -3%.
CCOC(=O)C1C(c2ccc(OC)c(OC)c2)c2c([nH][nH]c2=O)CC1(C)O (configuration not stated) was read as CtBP-E1A blk -7, ClpP mod -1.7%, Menin-MLL FL inh 3.2, Sfp PPTase inh 5%, TRPV1 potentiator 4, gsp agonist -14% and gsp antag 9%.
`Cc1ccc(CNC(=O)C2CCN(S(=O)(=O)N3CCC4(CC3)OCCO4)CC2)cc1` gave CtBP-E1A blk -6, ClpP mod -4.4%, Menin-MLL FL inh 2.0, Sfp PPTase inh 14%, TRPV1 potentiator 1, gsp agonist -21%[15.4 µM] and gsp antag 12%.
COc1ccc(C(=O)/C=C2/Sc3cc4c(cc3N2C)OCO4)cc1 was read as CtBP-E1A blk -11, ClpP mod -7.4%, Menin-MLL FL inh 0.9, Sfp PPTase inh inconclusive, TRPV1 potentiator -3, gsp agonist inconclusive and gsp antag 2%.
For O=C(Cn1cnc2ccccc2c1=O)NCCC(=O)Nc1ccc2c(c1)OCO2 the results were CtBP-E1A blk 3, ClpP mod 0.0%, Menin-MLL FL inh -3.5, Sfp PPTase inh 11%, TRPV1 potentiator 0, gsp agonist inconclusive and gsp antag -16%.
For CCOC(=O)Cn1nnc(-c2cc(OC)c(OC)c(OC)c2)n1 the results were CtBP-E1A blk 9, ClpP mod -1.1%, Menin-MLL FL inh -5.6, Sfp PPTase inh -5%, TRPV1 potentiator 14, gsp agonist -8%[15.4 µM] and gsp antag 14%.
For CCCCN1CCNC[C@@H]1Cc1ccccc1 the results were ClpP mod -0.5%, TRPV1 potentiator 26, gsp agonist -6% and gsp antag 11%.
For NNC(=O)CSc1cccc2cccnc12 the results were CtBP-E1A blk 9, ClpP mod inconclusive, Menin-MLL FL inh -2.6, Sfp PPTase inh -2%, TRPV1 potentiator 6, gsp agonist inconclusive and gsp antag 12%.
`CN(Cc1nc2ccccc2n1C)S(=O)(=O)c1ccc(F)cc1` gave CtBP-E1A blk 4, ClpP mod 0.6%, Menin-MLL FL inh 6.2, Sfp PPTase inh 4%, TRPV1 potentiator -17, gsp agonist 8% and gsp antag -3%.
COc1ccc(-c2nnn(CC(=O)N(CC(=O)NC3CCCC3)c3ccccc3F)n2)cc1OC was read as CtBP-E1A blk 3, Menin-MLL FL inh 0.5, Sfp PPTase inh 8%, TRPV1 potentiator -1, gsp agonist -7%[15.4 µM] and gsp antag -9%.
Screening COc1ccc(Nc2nc(C)cc(=O)[nH]2)c(OC)c1 returned CtBP-E1A blk -2, ClpP mod -0.1%, Menin-MLL FL inh 4.0, Sfp PPTase inh -6%, TRPV1 potentiator 2, gsp agonist -34%[inhibitor] and gsp antag 0%.
For CN1C(=O)C2C3c4ccccc4C(c4ccccc43)[C@@H]2C1=O (some centres not stated) the results were CtBP-E1A blk 8, ClpP mod 0.3%, Menin-MLL FL inh 1.6, Sfp PPTase inh 8%, TRPV1 potentiator 12, gsp agonist -32%[inhibitor] and gsp antag 2%.
Cc1ccc(C(=O)NCC(=O)OCC(=O)c2c(N)n(C)c(=O)n(C)c2=O)cc1C was read as CtBP-E1A blk -3, ClpP mod -2.6%, gsp agonist 22% and gsp antag -5%.
`NS(=O)(=O)c1ccc(NC(=O)c2ccc3c(c2)CCN3S(=O)(=O)c2ccccc2)cc1` gave CtBP-E1A blk -3, ClpP mod -1.8%&-0.7%, Menin-MLL FL inh 1.1, Sfp PPTase inh -4%, TRPV1 potentiator 16, gsp agonist 10% and gsp antag inconclusive.
Screening COc1cc(S(=O)(=O)NC2CCCCC2C)ccc1Cl (configuration not stated) returned CtBP-E1A blk 2, ClpP mod -8.7%, Menin-MLL FL inh 3.4, Sfp PPTase inh 9%, TRPV1 potentiator -6, gsp agonist inconclusive and gsp antag -9%[15.4 µM].
For CCCCN(CC)C(=O)Cn1ncc2c3ccccc3n(CCC)c2c1=O the results were CtBP-E1A blk -1, ClpP mod 0.7%&4.1%, Menin-MLL FL inh 0.9, Sfp PPTase inh 1%, TRPV1 potentiator -18, gsp agonist -3%[15.4 µM] and gsp antag -37%.
Cc1c(C(=O)N2CCC(Cc3ccccc3)CC2)cccc1[N+](=O)[O-] was read as CtBP-E1A blk 0, Menin-MLL FL inh 2.5, Sfp PPTase inh 3%, TRPV1 potentiator 3, gsp agonist -23%[15.4 µM] and gsp antag 0%.
Screening COc1ccc(CCNC(=O)CSCc2ccc([N+](=O)[O-])cc2)cc1OC returned CtBP-E1A blk -16, ClpP mod -0.4%, Menin-MLL FL inh 1.7, Sfp PPTase inh 1%, TRPV1 potentiator -23, gsp agonist 6% and gsp antag 14%.
C=CCn1c(Cc2cccs2)nnc1SCC(=O)c1cccc(Br)c1 was read as CtBP-E1A blk -3, ClpP mod 1.5%, Menin-MLL FL inh -1.6, Sfp PPTase inh -2%, TRPV1 potentiator -6, gsp agonist -2% and gsp antag -1%.
CN(C)CCNc1nc2c(c(=O)[nH]c(=O)n2C)n1CCCc1ccccc1 was read as CtBP-E1A blk 2, ClpP mod 2.8%, Menin-MLL FL inh 0.0, Sfp PPTase inh 14%, gsp agonist -4% and gsp antag 5%.
Screening CCC1NC(=O)c2cccnc2-n2c1nc1ccc(OC)cc1c2=O (configuration not stated) returned CtBP-E1A blk -7, ClpP mod -6.0% and gsp agonist -100%[inhibitor].
`N#Cc1ccccc1OCC(=O)Nc1nnc(C2CC2)s1` gave CtBP-E1A blk -13, ClpP mod -2.9%, TRPV1 potentiator -2, gsp agonist -11% and gsp antag -9%.
NS(=O)(=O)c1ccc(CCNC(=O)CSc2ccccc2)cc1 was read as CtBP-E1A blk -4, ClpP mod 1.0%, Menin-MLL FL inh -1.3, Sfp PPTase inh 10%, TRPV1 potentiator inconclusive, gsp agonist 0% and gsp antag 1%.
CC(=O)Cc1cc2cc([N+](=O)[O-])ccc2oc1=O was read as ClpP mod 0.6%, Menin-MLL FL inh -0.7, Sfp PPTase inh 5%, TRPV1 potentiator -3, gsp agonist 0% and gsp antag -7%.
CC(C)CC(=O)N1CCN(C(=O)CCC2CCCC2)CC1 was read as CtBP-E1A blk -5, ClpP mod -1.5%, Menin-MLL FL inh 2.6, Sfp PPTase inh 8%, TRPV1 potentiator 17, gsp agonist -5% and gsp antag 2%.
For CCC(C)C(NC(=O)OC(C)(C)C)C(=O)NC(Cc1ccccc1)C(=O)OC (configuration not stated) the results were CtBP-E1A blk -4, ClpP mod -1.2%, Menin-MLL FL inh -1.2, Sfp PPTase inh 15%, TRPV1 potentiator -14, gsp agonist -20% and gsp antag 3%.
Screening Cc1ccc(NC(=O)N(O)C2CCCCC2C#N)cc1 (configuration not stated) returned CtBP-E1A blk 11, ClpP mod 0.0%, gsp agonist 16% and gsp antag 7%.
COc1cc(/C=N/NS(=O)(=O)c2ccc(C)c([N+](=O)[O-])c2)ccc1O was read as CtBP-E1A blk 5, Menin-MLL FL inh 0.4, Sfp PPTase inh -27%, TRPV1 potentiator 4, gsp agonist 6%[15.4 µM] and gsp antag -9%.
